# Screens as filed in PubChem BioAssay.
# PV pol inh: poliovirus RNA polymerase inhibition; P03300; poliovirus polymerase elongation, fluorescence polarization; hits give low values; % elongation, % (compound at 16.7 µg/mL); 150,000 tested, 0.66% active; AID 588519; in the data active = % elongation below about 90%; note: some results filed as inactive read as strong as hits
# Target sequence (P03300 1749-2209 limits assumed): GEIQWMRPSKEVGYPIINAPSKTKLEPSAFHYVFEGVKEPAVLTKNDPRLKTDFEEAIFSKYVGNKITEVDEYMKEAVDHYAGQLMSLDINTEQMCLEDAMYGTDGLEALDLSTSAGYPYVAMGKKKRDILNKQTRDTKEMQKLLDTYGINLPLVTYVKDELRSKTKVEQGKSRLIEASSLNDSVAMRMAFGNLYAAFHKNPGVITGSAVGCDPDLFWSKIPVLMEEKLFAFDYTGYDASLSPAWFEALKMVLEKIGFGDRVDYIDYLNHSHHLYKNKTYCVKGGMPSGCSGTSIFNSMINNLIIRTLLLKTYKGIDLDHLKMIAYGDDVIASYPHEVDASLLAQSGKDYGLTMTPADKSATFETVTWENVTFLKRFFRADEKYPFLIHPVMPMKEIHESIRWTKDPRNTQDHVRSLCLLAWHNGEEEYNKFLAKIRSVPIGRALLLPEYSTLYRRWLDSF
# MbtI inh: inhibitors of Mycobacterium tuberculosis siderophore enzyme MbtI | 100,000 tested, 0.89% active | P9WFX0 | inhibition, %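 (about 17 µg/mL by stock and volumes)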 | purified MbtI enzyme, fluorescence intensity read-out | AID 493033;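 active = above 50% in both replicates, above 80% if mildly self-fluorescent; inactive = the rest, strongly fluorescent compounds included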;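 note: 0% = mean of negative and 100% = mean of positive controls; one replicate is shown; some compounds called inactive have numbers as strong as hits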
# MenB inh: inhibitors of Mycobacterium tuberculosis MenB enzyme; inhibition, %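 (about 12 µg/mL by stock and volumes)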; P9WNP5; 100,000 tested, 0.43% active; MenB enzyme assay, absorbance read-out; some hits fall short of the stated cut;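 active = mean of two replicates above 30%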;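 note: 0% = no compound and 100% = wells with inactive enzyme; the first replicate is given; strong numbers were not always called active; inactives centre near -10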
# Target sequence (P9WNP5 whole entry, looked up): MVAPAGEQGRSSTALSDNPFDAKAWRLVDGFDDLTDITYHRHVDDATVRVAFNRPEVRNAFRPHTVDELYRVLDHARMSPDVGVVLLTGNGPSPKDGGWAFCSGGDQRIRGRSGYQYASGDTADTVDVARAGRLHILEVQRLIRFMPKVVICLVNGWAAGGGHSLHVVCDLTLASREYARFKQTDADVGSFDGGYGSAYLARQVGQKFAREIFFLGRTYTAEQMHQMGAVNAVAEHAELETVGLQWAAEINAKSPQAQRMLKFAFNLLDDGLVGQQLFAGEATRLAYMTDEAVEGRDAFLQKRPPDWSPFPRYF
# PV pol inh intensity: recorded beside PV pol inh, whose call it bears; % elongation; measured here: total intensity read-out; formula for this scale not given here;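 total fluorescence in place of polarization; lower means less elongation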
# Starred values were filed as active, the others as inactive; nt = no result given.
# Values run as follows: PV pol inh	PV pol inh intensity	MbtI inh	MenB inh
NCC(O)CN(c1ccccc1)c1ccccc1 (stereo not given)
    102	102	-69	3
CC(=O)n1c(SCC(=O)NC2=NN=C(c3ccc(C)cc3)CS2)nc2ccccc21
    104	103	4	8
Cc1csc(Cc2nc3ccccc3n2C)n1
    101	100	28	-28
CC1=C/C(=C/N(C)c2ccccc2)C(=O)S1
    100	97	28	-147
CCCS(=O)(=O)N1N=C(c2ccc(C)cc2)CC1c1ccco1 (stereo not given)
    82	174	5	-25
CCN(CC)C(=O)N1CCN(C(=O)N(CC)CC)CC1
    104	102	-22	11
O=C(NC1CCCC1)c1ccccc1C(F)(F)F
    104	107	-16	-31
CN1C/C(=C\c2cc(Br)cs2)C(=O)/C(=C/c2cc(Br)cs2)C1
    99	104	10	8
N#C/C(=C\c1cccs1)c1csc2ccc(Cl)cc12
    109	106	-7	-19
COc1ccc(N=C2SCC(=O)N2C)cc1
    103	105	7	8
CCCCS(=O)(=O)Nc1nccs1
    99	103	-4	-15
CC(C#N)OC(=O)c1ccccc1Sc1ccccc1C#N (stereo not given)
    103	102	-15	-8
CCOC(=O)C1CCN(C(c2cccnc2)c2nnnn2Cc2ccccc2)CC1 (stereo not given)
    99	101	6	-5
COc1ccc(CCN(C)Cc2ccncc2)cc1OC
    98	101	5	3
O=C1CC(c2ccc(S(=O)(=O)NC3CCCCC3)cc2)CN1 (stereo not given)
    99	102	-8	-6
Nn1c(SCc2ccccc2)nc2ccccc21
    101	104	-7	nt
CC1=C(C)CC2(SC1)C(=O)N(c1ccccc1)N=C2N (stereo not given)
    103	111	1	-29
C=CCN(CC(=O)N1CCCc2ccccc21)S(=O)(=O)c1cccs1
    107	112	-11	2
O=[N+]1C2=C(CCCC2)N([O-])C12CCCC2
    103	103	7	-42
Cc1ccc(/C=N/n2cnnc2)cc1
    103	102	17	8

# Continued:
# Values run as follows: PV pol inh	PV pol inh intensity	MbtI inh	MenB inh
CN(C)CC1CCCCC1=O (stereo not given)
    103	107	-3	nt
CCOC(=O)c1cc(C(=O)NCc2ccccc2)c(=O)[nH]c1C
    99	101	1	-5
NC(=O)C(F)(F)C(F)(F)C(F)(F)C(F)F
    99	101	17	10
COC(=O)C(Cc1ccc(O)cc1)NC(=O)c1ccccc1OC (stereo not given)
    103	99	5	2
CCN(c1ccccc1)S(=O)(=O)c1ccc2c(c1)OCCN2C(C)=O
    102	104	-5	-2
O=C(Oc1ccc2oc(-c3ccco3)cc(=O)c2c1)C1CCCCC1
    100	98	-13	-4
CCn1cc(CCCC(=O)NCc2cc(Br)ccc2OC)c2ccccc21
    103	106	-4	-45
CCOC(=O)c1sc(NC(=O)c2cc3c(C)nn(Cc4ccccc4)c3s2)nc1C
    102	106	-4	-5
Cc1nnsc1C(=O)Nc1cccnc1
    105	113	-13	-8
CCOC(=O)N1CCC(NC(=O)c2ccc3nc(/C=C(\O)c4ccc(OC)cc4)c(=O)[nH]c3c2)CC1
    102	106	-10	-9
CN(C)CC[n+]1ccc(C(=O)c2ccccc2)cc1
    102	102	-5	2
COc1ccc(CCNS(=O)(=O)c2ccc3[nH]c(=O)ccc3c2)cc1OC
    103	107	-3	-9
CCOC(=O)Cc1n[nH]c(=S)n1C
    103	108	25	-25
CCOc1ccc(-n2c(C)cc(/C=N/N(C)C)c2C)cc1
    106	111	12	-31
COC(=O)c1sc(N)c(C(=O)OC)c1COC(=O)c1ccc2c(c1)C(=O)N(Cc1ccco1)C2=O
    103	105	2	1
O=C1Nc2ccccc2C(O)(C(=O)NCc2ccccc2)N1c1ccccc1 (stereo not given)
    99	100	0	-11
C(=NC1CC1)c1ccc(-c2ccccc2)cc1
    100	109	-7	-13
O=C(NCCO)c1ccccc1-c1ccccc1
    100	101	-21	-3
CCOC(=O)C1=C(CNCc2ccccc2)NC(=O)NC1c1ccccc1 (stereo not given)
    100	102	2	-5
CC1CCCC(C)N1CC(O)Cn1c2ccccc2c2ccccc21 (stereo not given)
    102	102	2	12

# (more compounds)
# Values run as follows: PV pol inh	PV pol inh intensity	MbtI inh	MenB inh
O=C(C1=COCCO1)N1c2ccccc2Sc2ccccc21
    101	99	-4	nt
COc1cccc(C(=O)Nc2ccc(-c3nc4ncccc4o3)cc2)c1
    102	102	-13	-11
Cc1noc(C)c1C(=O)N=c1sc2ccccc2n1C
    102	98	-1	-17
O=C(NCc1ccccc1CN1CCCC1)c1csc(-c2cccs2)n1
    103	107	16	9
COC(=O)c1sc(NC(=O)c2csc3c2CCCC3)c(C#N)c1C
    101	102	-15	5
C=CCN(C(=O)CCc1c(C)nn(-c2ccccc2)c1C)c1nc2c(s1)CCCC2
    110	102	-8	-47
Cc1cc(OC(=O)NC(=O)C(F)(F)F)c(C(C)C)cc1I
    99	84	nt	5
Cc1ccc2c(cnn2C(=O)CCCC(=O)NC2CCCC2)c1
    104	107	4	-10
N#Cc1ccc(Cl)cc1NC(=O)COC(=O)c1cc(-c2ccco2)nc2ccccc12
    104	91	-44	-36
O=C(Nc1ccc(Cc2ccc(NC(=O)C3CC3)cc2)cc1)C1CC1
    107	107	nt	-15
CCC1Oc2ccc(C)cc2N(CC(=O)NC(C)C)C1=O (stereo not given)
    102	105	0	8
Cc1ccc(OCC(O)CN2CCC(C)CC2)c(C)c1 (stereo not given)
    99	100	5	-10
CCCC1C2C(=O)N(c3ccccc3)C(=O)C2ON1c1ccc(Cl)c(Cl)c1 (stereo not given)
    109	105	-8	-12
O=C(COc1nc2ccccc2s1)N1N=CCC1c1ccccc1 (stereo not given)
    104	103	-6	-19
CCCCn1c(C)cc(/C=C(\C#N)C(=O)O)c1C
    99	107	6	-21
CCc1nn(C(C)C(=O)NCCc2ccc(OC)c(OC)c2)c(=O)c2cc3occc3n12 (stereo not given)
    101	100	0	-22
Cc1cc(-c2ccc(C(C)C)c(S(=O)(=O)NC(C)(C)C)c2)on1
    102	103	-7	-12
CC(C(=O)Nc1ccc(Cl)cn1)N(C)Cc1c(F)cccc1Cl (stereo not given)
    108	115	-3	-32
O=C1CC(N2CCSC2=S)C(=O)N1c1cccc(Cl)c1Cl (stereo not given)
    102	105	-15	nt
Cc1c(C)n(CC(O)CN2CCN(CC(O)Cn3c(C)c(C)c4ccccc43)CC2)c2ccccc12 (stereo not given)
    106	104	39	-23

# Remaining list, next part
structure	PV pol inh	PV pol inh intensity	MbtI inh	MenB inh
O=C(O)C1Cc2[nH]cnc2C(c2ccccc2)N1 (stereo not given)	102	111	nt	0
COc1ccccc1OCC(=O)NN	104	104	2	0
CCOc1ccc(C2C3=C(CCCC3=O)NC3=C2C(=O)CCC3)cc1	101	104	-8	-39
O=C(Cc1ccccc1)Nc1ccc(-c2cn3ccsc3n2)cc1	106	106	22	-37
Cc1cc(F)c(F)c(C(=O)N2CCCCCC2)c1Cl	103	100	2	34*
CCN(CC)C(=O)N1CCN(c2ccccc2)CC1	101	102	-6	-12
O=C(CCc1ccccc1)Nc1ccccc1N1CCOCC1	100	97	4	-2
COCc1c(CN)cnc(C)c1N	104	102	77	-62
CSc1nc(-c2ccccc2)cn1-c1cccc(Cl)c1	104	99	9	-14
Cn1nccc1NC(=O)/C=C/C(=O)O	98	106	-9	-8
Cc1ccccc1C1Nc2ccccc2S(=O)(=O)N1 (stereo not given)	104	105	2	-1
Cc1nc2ccc(C(=O)OCCC(F)(F)F)cc2[nH]1	102	103	-3	nt

# The listing continues:
structure	PV pol inh	PV pol inh intensity	MbtI inh	MenB inh
CCOc1ccc(N2CC(c3nc4ccccc4n3C(C)C)CC2=O)cc1 (stereo not given)	102	98	-1	-6
C1=C(c2ccccc2)CCN(Cn2nnc(-c3ccccc3)n2)C1	102	105	0	4
Cc1cc2ncn(CCc3noc(-c4ccccc4)n3)c2cc1C	101	101	2	-5
CC1CC(C)(C)Nc2ccc(OC(=O)c3ccco3)cc21 (stereo not given)	104	107	2	-13
O=C(c1ccco1)N(Cc1ccccc1)Cc1cn(-c2ccccc2)nc1-c1ccc(F)cc1	100	103	5	-31
c1ccc(COC(CNC2CCCCC2)CNC2CCCCC2)cc1	107	109	-13	9
CN(C)S(=O)(=O)c1ccc2c3c(cccc13)C(=O)N2C(=O)c1cccs1	nt	nt	8	4
NC(=O)C1CCN(C(=O)CN2C(=O)/C(=C/c3ccccc3F)Sc3ccccc32)CC1	102	106	-9	-22
CN(C)c1ccc2c3c(cccc13)C(=O)N(c1nc3ccccc3n1C)C2=O	106	149	3	-7
O=C1/C(=C/c2ccccc2)CCC1C1CCCC1 (stereo not given)	97	102	15	-4
O=C(Nc1nc2ccccc2s1)c1ccc(=O)[nH]c1	115	133	9	-1
O=c1nc(Oc2cccc(C(F)(F)F)c2)cc(Oc2cccc(C(F)(F)F)c2)[nH]1	96	99	nt	-67

# A second format for part of the listing above.
C1=C(c2ccccc2)CCN(Cn2nnc(-c3ccccc3)n2)C1
  PV pol inh: 102 | PV pol inh intensity: 105 | MbtI inh: 0 | MenB inh: 4

O=C(Nc1nc2ccccc2s1)c1ccc(=O)[nH]c1
  PV pol inh: 115 | PV pol inh intensity: 133 | MbtI inh: 9 | MenB inh: -1

# The list continues.
structure	PV pol inh	PV pol inh intensity	MbtI inh	MenB inh
Cc1ccccc1CC(=O)Nc1ccccc1	105	103	-5	-27
CC1CCCC(C)N1Cc1ccc(N)cc1 (stereo not given)	106	108	nt	-9
O=C(Cc1cccs1)NC1CCN(Cc2ccccc2)CC1	102	98	-13	-19
CCOC(=O)N1CCC(NCc2ccc(Br)cc2)CC1	101	101	-7	0
O=C(c1cc2sccc2n1Cc1ccc(F)cc1)N1CCc2ccccc2C1	104	103	0	-65
Cc1ccc(C)c(NC2=NCCC2)c1	104	100	-7	nt
C=CCNC(=O)Cc1coc2cc(C)ccc12	104	104	-12	-17
CC1=CC(=C2C(=O)N(c3ccccc3)N=C2C)C=C(C)N1Cc1ccco1	77	107	10	-14
COc1ccc2c(c1)CCc1sc(/N=C/c3ccc(C)cc3)nc1-2	101	99	18	-17
C=CCn1c(COc2ccccc2)nnc1SCC(N)=O	102	103	-3	-19
Cc1c(Cl)cccc1NC1=NCC(=O)N1C1CCCC1	102	104	0	16
Cc1cc(-c2ccccc2)n2nc(N)nc2n1	102	102	89	-8

# Profiles as entered above. Values in the order: PV pol inh	PV pol inh intensity	MbtI inh	MenB inh
# O=C(Cc1cccs1)NC1CCN(Cc2ccccc2)CC1 across the screens: 102	98	-13	-19
# C=CCn1c(COc2ccccc2)nnc1SCC(N)=O across the screens: 102	103	-3	-19

# New compounds follow.
structure	PV pol inh	PV pol inh intensity	MbtI inh	MenB inh
COc1ccc(Cl)cc1NC(=O)c1c(NCc2cccn2C)sc2c1CCCC2	101	106	21	-11
Cc1[nH]c2ccccc2c1C(c1cccs1)N1CCN(c2ccccc2)CC1 (stereo not given)	104	108	nt	-14
O=C(O/N=C(\Cn1nnc(N2CCOCC2)n1)c1ccc(Cl)cc1)c1ccc(Cl)cc1Cl	105	106	0	-21
Cc1cc(C(=O)COc2cccc3cccnc23)c(C)n1C	105	102	23	-4
CCn1c2ccccc2c2cc(NC(=O)c3cc(C)on3)ccc21	104	104	-35	-27
Cc1cc(C(=O)NCc2ccccc2)on1	98	103	0	7
Cc1ccc(C(=O)Nc2ccc3c(c2)OCCO3)cc1	99	102	5	-9
COc1ccc(C(=O)N[C@H](C(=O)Nc2nc3ccccc3[nH]2)C(C)C)cc1	101	109	4	-18
Cn1nnc2c(N3CCC(C#N)(c4ccccc4)CC3)nc(Cc3ccc(Cl)cc3Cl)nc21	104	103	13	-18
CCN=C(Nc1ccc2c(c1)OCO2)SC1CC(=O)N(c2ccc(C(=O)OC)cc2)C1=O (stereo not given)	98	100	1	-17
O=C(NCc1cccnc1)c1nc(-c2ccc(Cl)cc2)n2c1CCCCC2	103	102	-7	-23
O=C(Nc1nccs1)c1ccoc1COc1ccccc1	101	102	nt	-54

# Continued.
structure	PV pol inh	PV pol inh intensity	MbtI inh	MenB inh
CC1CC1C(=O)OCC(=O)Nc1cccc(Cl)c1 (stereo not given)	102	105	-13	nt
COCC(C)NC(=O)Nc1cn(C)c2ccccc12 (stereo not given)	100	103	-26	0
COc1ccc(C)cc1NC(=O)c1c(C)cn(C)c1CC(=O)O	102	98	-3	-2
Cc1c(C#N)c(NC(=O)CSc2nnnn2C2CCCC2)n(Cc2ccccc2)c1C	100	100	3	-2
Cc1ccc(C(c2c(O)[nH]c(=S)[nH]c2=O)N2CC(C)CC(C)C2)cc1 (stereo not given)	97	104	48	-24
N#CCNS(=O)(=O)c1cc(Cl)ccc1Cl	107	110	nt	-24
Cc1ccc2nc(NCc3ccccc3)c(C=Nc3ccc(Cl)cc3)c(=O)n2c1	98	123	nt	-6
COc1ccccc1CNC(=O)C1CCCN(C(=O)N2CCOc3ccccc32)C1 (stereo not given)	101	102	-74	0
Cc1ccc(Nc2nc(Nc3ccc(C)cc3)nc(Sc3ncn[nH]3)n2)cc1	103	105	nt	-11
Cc1c(C(=O)O)cc(-c2ccccc2)n1CCSc1cc(C(F)(F)F)nc2ccccc12	102	102	-1	5
Cc1ccc(C)c(N2CCN(C(=O)c3ccc(/C=C4\Oc5ccccc5NC4=O)cc3)CC2)c1	102	99	-12	-10
